Screens as filed in PubChem.
HIV Env fusion: inhibitors of HIV-1 Env-driven cell-cell fusion, primary screen, HeLa-JRFL effector, CEM21 target cells, luciferase; inhibition, % at 12.3 µM; 1.1% of 360,000 active;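 active means mean replicate inhibition score of at least 50 and every replicate individually at or above 50; inconclusive means only one of the two criteria met; inactive means mean below 50 and not all replicates reaching 50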;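 further: 0% = plate neutral controls and 100% = maraviroc near 300 nM; one replicate is shown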
PABP polyA inh: PABP poly(A) RNA binding inhibitors, primary screen, biochemical, fluorescence polarization, uHTS. 1% of 290,000 active. Polyadenylate-binding protein 1 (Homo sapiens), P11940. inhibition, % at 35 µM;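 active means 50% or more with normal probe brightness, or confirmed in later tests; inconclusive means above 50% with abnormal brightness, or retests that disagree; inactive means below 50% or failed in later tests; about a fifth of its hits are not listed in these tables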;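 further: calls also rest on retests at 20 µM and on dose response follow-up; controls were probe without protein and protein plus probe with vehicle; some compounds called inactive have numbers as strong as hits; many hits fall short of the cut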
Target sequence (P11940 whole entry, looked up): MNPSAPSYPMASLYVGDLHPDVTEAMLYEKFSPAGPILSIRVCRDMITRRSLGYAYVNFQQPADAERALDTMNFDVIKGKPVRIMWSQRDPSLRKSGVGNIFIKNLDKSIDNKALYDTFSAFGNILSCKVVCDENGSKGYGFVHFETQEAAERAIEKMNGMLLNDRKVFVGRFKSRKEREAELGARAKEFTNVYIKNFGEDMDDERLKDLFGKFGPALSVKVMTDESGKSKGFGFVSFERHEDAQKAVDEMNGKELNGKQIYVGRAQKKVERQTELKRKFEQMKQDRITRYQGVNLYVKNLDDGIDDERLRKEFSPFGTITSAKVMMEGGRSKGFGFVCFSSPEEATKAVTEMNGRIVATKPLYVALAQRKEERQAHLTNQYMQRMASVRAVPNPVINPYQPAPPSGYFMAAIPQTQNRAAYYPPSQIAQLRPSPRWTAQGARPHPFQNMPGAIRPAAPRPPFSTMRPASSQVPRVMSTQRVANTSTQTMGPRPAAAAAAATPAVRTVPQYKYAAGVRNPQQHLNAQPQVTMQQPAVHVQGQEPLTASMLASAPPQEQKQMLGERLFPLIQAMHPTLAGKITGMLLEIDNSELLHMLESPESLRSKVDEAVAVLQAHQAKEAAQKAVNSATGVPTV
CSC inhib: cancer stem cell viability inhibitors, primary screen, luminescence; inhibition, % at 7.5 µM; 1.1% of 300,000 active; cancer stem cell-like cells viability;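 active means mean at 75% or more and at least half the replicates too; inconclusive means mean and replicates disagree; tested in HMLE shEcad cells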;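 further: 0% = median of negative and 100% = median of positive control wells; the first replicate is given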
Rce1 inh: yeast Rce1p protease inhibitors, primary screen, biochemical, fluorescence, cell-free homogeneous | AID 2563, 2010 | yeast membranes, quenched prenylated peptide cleavage fluorescence | calls only | 0.27% of 290,000 active;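 active means fall in fluorescence gain of 50% or more versus controls, with final raw signal at or below 3038400; inconclusive means same 50% fall but final raw signal above 3038400; inactive means fall in fluorescence gain under 50%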;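 further: plate controls were neutral control wells for no effect and wells lacking membranes for full effect; tested at 10 µM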
eIF4H inh: human eIF4H binding inhibitors, primary screen, translation initiation inhibitor project, biochemical, uHTS, fluorescence polarization; eIF4H fluorescence polarization binding assay; 0.94% of 290,000 active; AID 2012, 2009; Eukaryotic translation initiation factor 4H (Homo sapiens), Q15056; inhibition, % at 35 µM;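 active means 50% or more with normal probe brightness, or confirmed in later tests; inconclusive means above 50% with abnormal brightness, or retests that disagree; inactive means below 50% or failed in later tests; about a fifth of its hits are not listed in these tables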;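 further: calls also rest on retests at 20 µM and on dose response follow-up; 0% = protein and probe with vehicle and 100% = probe without protein; strong numbers were not always called active; many hits fall short of the cut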
UUG fidelity: modulators of yeast start codon fidelity, primary screen, whole organism, S. cerevisiae, single point, plate reader; S. cerevisiae UUG-firefly luciferase reporter, luminescence/redox ratio; activity score, % at 18.7 µM; 0.13% of 350,000 active;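 active means replicate mean at a twofold rise or more, about +100% in these data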;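 further: firefly luciferase made from a UUG start codon reports start codon fidelity; reporter light over untreated wells divided by growth signal over untreated wells; some hits fall short of that in this replicate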
MT1-MMP act inh: blockers of MT1-MMP proenzyme processing, primary screen, HT1080 RFP-PRO-GFP cells, GFP/RFP fluorescence. GFP/RFP ratio change, % at 20 µM. AID 651647, 2012. GFP/RFP ratio fluorescence, overnight; percent of plate control window, DMSO zero. Matrix metalloproteinase-14 (Homo sapiens), P50281. 0.061% of 360,000 active;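 active means GFP/RFP ratio change of at least 30% with cell ATP level not reduced by more than half and red fluorescence within 50% of control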; further: strong numbers were not always called active
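Material: RFP-PRO-GFP reporter HT1080 cells. Dosing: single-point 20 µM compound, 1% DMSO. Controls: DMSO and RFP-L50D-GFP cell wells. Timing: cells overnight before dosing, compound overnight, 37 °C, 5% CO2. Measure: GFP/RFP fluorescence ratio.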
eIF4H inh retest: further read-out of eIF4H inh, marked with its call; inhibition, %; compound at 20 µM; confirmation average;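 mean of two retest wells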
PABP polyA inh retest: recorded beside PABP polyA inh, whose call it bears; inhibition, %; compound at 20 µM; confirmation repeats;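 mean of two retest wells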
MT1-MMP act inh RFP: recorded beside MT1-MMP act inh, whose call it bears; RFP signal change, %; measured here: RFP expression control read;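 0 = vehicle wells; hits needed this value within 50% of zero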
* marks the source's active call; other numbers are inactive results; i = inactive; ? = inconclusive; · = no result given. This is a subset; count on the stated rates, not on these rows.

Preview (two entries):
SMILES | HIV Env fusion | PABP polyA inh | CSC inhib | Rce1 inh | eIF4H inh | UUG fidelity | MT1-MMP act inh | MT1-MMP act inh RFP | others
COc1cccc(-c2cccc(NC(=O)C3CCN(C4CCC4)CC3)c2)c1 | · | -9 | 3 | i | 8 | 16 | -1 | 2
O=C(NC1CCSc2ccccc21)c1ccc(F)c(S(=O)(=O)N2CCOCC2)c1 (centres undefined) | · | 13 | 8 | i | -1 | -11 | 1 | 0

Results (from the top)
SMILES | HIV Env fusion | PABP polyA inh | CSC inhib | Rce1 inh | eIF4H inh | UUG fidelity | MT1-MMP act inh | MT1-MMP act inh RFP | others
COc1cccc(-c2cccc(NC(=O)C3CCN(C4CCC4)CC3)c2)c1 | · | -9 | 3 | i | 8 | 16 | -1 | 2
O=C(NC1CCSc2ccccc21)c1ccc(F)c(S(=O)(=O)N2CCOCC2)c1 (centres undefined) | · | 13 | 8 | i | -1 | -11 | 1 | 0
CCC(Sc1nc2ncnc(N)c2[nH]1)C(=O)O (centres undefined) | 8 | 5 | -1 | i | -5 | -21 | -2 | 0
Cc1nc(CSc2ccc(Cl)cc2)cc(N2CC(C)OC(C)C2)n1 (centres undefined) | -22 | 4 | -7 | i | -4 | -17 | -3 | -2
CN(C(=O)C1CCCN(c2ncnc3c2nc2n3CCCCC2)C1)c1cccc(Cl)c1 (centres undefined) | 8 | -2 | 32 | i | 0 | 10 | -3 | -4
CCC(c1nnnn1C1CCCCC1)N(Cc1ccco1)Cc1cc2ccc(OC)cc2[nH]c1=O (centres undefined) | · | -7 | · | · | -11 | 1 | -4 | -8
Cc1cc(C)cc(NC(=O)c2cc(S(=O)(=O)N3CCCC3)cn2C)c1 | -15 | -10 | -6 | i | 0 | -10 | -1 | 2
Cc1ccc(CNC(=O)C2CC(c3cc(C(F)(F)F)cc(C(F)(F)F)c3)=NO2)o1 (centres undefined) | -33 | -2 | 59 | i | -11 | -29 | -4 | -14
CCc1ccccc1NC(=O)CC(c1ccc(OC)cc1)n1cccc1 (centres undefined) | · | 2 | -14 | i | 2 | -13 | 15 | 0
COc1ccccc1NC(=S)NN1CCN(C)CC1 | -19 | 4 | 0 | i | 0 | · | 0 | 1
CCNC(=O)C1CCCN(C(=O)Cc2cccs2)CC1 (centres undefined) | 1 | · | · | · | · | 14 | 0 | 4
CCOCCOC(=O)C1=C(C)Nc2ccc(C)cc2S1 | -74 | 4 | 8 | i | -2 | -12 | -5 | -1
CCN(CC)S(=O)(=O)c1ccc(N2CCOCC2)c(NC(=O)Cc2ccc(Cl)cc2)c1 | 21 | -6 | 64 | i | -8 | · | 0 | -6
CC(OC(=O)c1ccc(Cl)c(S(N)(=O)=O)c1)C(=O)NCc1ccc2c(c1)OCO2 (centres undefined) | · | · | -11 | i | · | 13 | 1 | 2
O=C(c1ccco1)N(Cc1cc2ccccc2[nH]c1=O)C1CCCCC1 | · | 0 | -2 | i | 13 | · | -2 | -6
CC1=C(C(=O)Nc2cccc(C)n2)C(c2ccc3c(c2)OCO3)C2=C(CC(c3ccco3)CC2=O)N1 (centres undefined) | · | 14 | · | · | 11 | · | 1 | 2
CC(C)(C)c1ccc(Oc2ccc(N)cn2)cc1 | 38 | 2 | 42 | i | 41 | -22 | -59 | -13
Cc1onc(-c2ccccc2)c1C(=O)N(Cc1ccccc1)C(C)C | 13 | -7 | · | i | 3 | -2 | 5 | -3
O=C(O)CCc1ccc(-c2ccccc2)n1-c1ccc(C(=O)O)cc1 | · | 8 | -2 | i | 6 | -9 | 2 | 4
O=C(c1ccc(Br)s1)N1CCc2ccccc2C1 | -85 | 4 | -5 | i | -4 | 2 | 4 | 0
CC1(C(=O)OCC(=O)Nc2ccc(S(=O)(=O)N3CCOCC3)cc2)CC1(Cl)Cl (centres undefined) | · | · | -1 | · | · | -3 | 2 | -3
CN(C)/C=C/C(=O)c1ccc(Cl)cc1Cl | 20 | 0 | -3 | i | 5 | · | 7 | 10
CN(CCC#N)C(=O)COC(=O)c1cccnc1Nc1ccccc1F | -7 | -5 | -2 | · | -7 | · | -2 | -2
CCOc1ccc(NC(=O)C2C3C=CC4(O3)C2C(=O)N(Cc2cccnc2)C4C(=O)NC2CCCCC2)cc1 (centres undefined) | · | -3 | -11 | i | 1 | -10 | 0 | 4
CCOC(=O)N1CCC(NC(=O)c2csc3c2CCCC3)CC1 | 27 | -13 | 2 | i | -2 | -14 | 3 | 3

Some of these compounds in order of molecular weight, smallest number first:
SMILES | HIV Env fusion | PABP polyA inh | CSC inhib | Rce1 inh | eIF4H inh | UUG fidelity | MT1-MMP act inh | MT1-MMP act inh RFP | others
COc1ccccc1NC(=S)NN1CCN(C)CC1 | -19 | 4 | 0 | i | 0 | · | 0 | 1
CCOCCOC(=O)C1=C(C)Nc2ccc(C)cc2S1 | -74 | 4 | 8 | i | -2 | -12 | -5 | -1
CCc1ccccc1NC(=O)CC(c1ccc(OC)cc1)n1cccc1 (centres undefined) | · | 2 | -14 | i | 2 | -13 | 15 | 0
Cc1cc(C)cc(NC(=O)c2cc(S(=O)(=O)N3CCCC3)cn2C)c1 | -15 | -10 | -6 | i | 0 | -10 | -1 | 2
Cc1nc(CSc2ccc(Cl)cc2)cc(N2CC(C)OC(C)C2)n1 (centres undefined) | -22 | 4 | -7 | i | -4 | -17 | -3 | -2
Cc1ccc(CNC(=O)C2CC(c3cc(C(F)(F)F)cc(C(F)(F)F)c3)=NO2)o1 (centres undefined) | -33 | -2 | 59 | i | -11 | -29 | -4 | -14
O=C(NC1CCSc2ccccc21)c1ccc(F)c(S(=O)(=O)N2CCOCC2)c1 (centres undefined) | · | 13 | 8 | i | -1 | -11 | 1 | 0

(listing goes on)
SMILES | HIV Env fusion | PABP polyA inh | CSC inhib | Rce1 inh | eIF4H inh | UUG fidelity | MT1-MMP act inh | MT1-MMP act inh RFP | others
O=C(NCc1ccco1)c1noc2c1CCCCC2 | -54 | 6 | -2 | i | -9 | -12 | -2 | -6
Cn1nnnc1SCC(=O)NC(=O)NCc1ccccc1 | · | 11 | -9 | i | -11 | -13 | -4 | -3
O=C(NC(=S)Nc1ccccc1Cl)c1ccco1 | -45 | 3 | 10 | i | 8 | -30 | 1 | 0
CC(C)[C@H](NC(=O)N1CCn2c1nc1ccccc12)C(=O)NCc1ccc2c(c1)OCO2 | 12 | 2 | -4 | i | 1 | -19 | 0 | -3
Cc1c(-c2cccc(NC(=O)c3ccco3)c2)nc2ncccn12 | 11 | 6 | -1 | ? | -3 | · | -5 | 4
Cc1c(C(=O)NC(Cc2ccccc2)c2nc3ccccc3[nH]2)cccc1[N+](=O)[O-] (centres undefined) | -16 | -12 | 7 | i | -8 | · | -12 | -8
CS(=O)(=O)Nc1cccc(C2=NN(C(=O)c3ccco3)C(c3cccs3)C2)c1 (centres undefined) | 0 | 0 | 0 | i | 11 | 4 | -1 | -4
CCOC(=O)c1cc(-c2ccccc2)nc2nc(N(CC)CC)sc12 | 10 | 8 | 30 | i | 8 | -4 | 2 | -1
O=C(CCn1c(=O)c2ccccc2n(CC(=O)NCCC2=CCCCC2)c1=O)NCc1ccco1 | · | 11 | -6 | i | 0 | 7 | 2 | 2
COc1ccc(/C=C/CN2CCC(C(=O)NC(c3ccc(F)cc3)c3ccc4ccccc4n3)CC2)cc1 (centres undefined) | 1 | · | · | · | · | 5 | -1 | -3
CCOc1ccccc1NC(=O)c1ccc(OCC(=O)N2CCOCC2)c(OC)c1 | 3 | · | -10 | · | · | -11 | 2 | 3
CC(C)c1nc(-c2ccccc2)c(-c2ccccc2)[nH]1 | · | 4 | -3 | i | -8 | -5 | -1 | -2
Cc1cc(C)cc(Nc2cc(=O)n(C3CCCCC3)c(=O)[nH]2)c1 | · | -4 | 47 | i | -8 | -6 | -9 | -20
CC(=O)N1CCN(C(=S)c2ccc(Cl)cc2)CC1 | 7 | -4 | -4 | i | 2 | · | 0 | 2
COC(=O)c1sccc1NS(=O)(=O)c1ccc(F)cc1F | -7 | 3 | · | i | 1 | -5 | -5 | 2
Cn1c(N)c(C(=O)COC(=O)c2ccnc3ccccc23)c(=O)n(C)c1=O | 5 | 2 | 2 | i | -2 | -11 | 1 | 0
CCN(CC)c1ccc2cc(C(=O)NNC(=O)c3ccc(S(=O)(=O)N4CCCCC4)cc3)c(=O)oc2c1 | -7 | 13 | 8 | i | 35 | 0 | -130 | -8
COc1cc(O)c(C(CC(=O)N2CCN(c3ccccc3)CC2)c2ccc(N(C)C)cc2)c(OC)c1 (centres undefined) | -352 | -4 | 1 | i | 2 | -12 | -3 | -4
O=C(CSc1nncs1)NC1CCCCCCC1 | 0 | · | 11 | · | · | 6 | -2 | 3
CSCCC(NC(=O)C12CC3CC(CC(C3)C1)C2)C(=O)OCC(=O)c1ccc(C)cc1 (centres undefined) | -1 | 75 | -1 | · | 4 | · | -3 | -3 | eIF4H inh retest=11;PABP polyA inh retest=-7
c1ccc(-n2ncc3c(NCC4CCCO4)ncnc32)cc1 (centres undefined) | -52 | -5 | -10 | i | 3 | -4 | 1 | 1
COc1ccc(/C=C/C(=O)OCC(=O)Nc2ccc(S(N)(=O)=O)cc2)cc1OC | -20 | -8 | -8 | i | 8 | · | 0 | -4
CC(=O)Nc1cc(NC(C)=O)c(CC(C)C)s1 | · | -2 | 13 | i | -20 | -21 | 4 | 4
O=C(CN1C(=O)c2ccccc2C1=O)Nc1nc(-c2cccc([N+](=O)[O-])c2)cs1 | · | 4 | -7 | i | -6 | · | · | ·
Cc1cccc(N2CCN(c3ccc(C(N)=O)cc3[N+](=O)[O-])CC2)c1C | 7 | -10 | 5 | i | -10 | · | 0 | 3
Cc1cc(C)c(NC(=O)CS(=O)CC(=O)Nc2ccc(N3CCOCC3)cc2)c(C)c1 (centres undefined) | -20 | 9 | -10 | i | -10 | -10 | -3 | -2
COC(=O)c1cnc(Nc2nc(C(N)COCc3ccccc3)cs2)nc1C(F)(F)F (centres undefined) | -11 | · | · | · | · | -19 | 2 | 2
COc1ccc(CN2C(=O)C(CC(=O)NCCN3CCOCC3)CC(C(=O)N(C(C)C)C(C)C)=C2C)cc1 (centres undefined) | 6 | · | · | · | · | -5 | 1 | 4
CCOC(=O)Nc1sc(C)nc1-c1ccccc1 | · | 10 | 8 | i | 10 | -15 | 2 | 1
